Sfp inh = qHTS Assay for Inhibitors of Bacillus subtilis Sfp phosphopantetheinyl transferase (PPTase); 4'-phosphopantetheinyl transferase ffp (Bacillus subtilis), Q9F4F7; Biochemical Sfp PPTase activity, qHTS; Potency, µM, without a hit: max response, negative = inhibition, actives largely listed as inhibitors; 3.5% of 310,000 active; active means well fitted inhibition curve with a large enough effect; inconclusive means small, poorly fitted or top-dose-only effect, or another doubt; inactive means no such curve, though single readings can be large or run the other way;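 further: the enzyme is Sfp with the accession as filed and its product quenches rhodamine fluorescence; potency means the concentration at half of the fitted maximal effect; 0% = enzyme reaction without inhibitor and -100% = no enzyme wells; top concentration of the series not given in the record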
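Fluorescence-quenching assay with 15 nM Sfp, 5 uM rhodamine-CoA and 12.5 uM BHQ-2-labelled ybbR peptide in pH 7.6 Hepes/MgCl2 buffer. Enzyme was pre-incubated with compound for 15 min at room temperature. Rate was taken from the 30-min fluorescence change (525/598 nm).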
Menin MLL FP FL = qHTS Assay for Inhibitors Targeting the Menin-MLL Interaction in MLL Related Leukemias: Competition With Fluorescein Labeled MLL-derived Peptide; Fluorescence polarization, fluorescein-MLL peptide displacement from menin; AID 1766, 2009; FP activity change, % at 61.4 µM; 290,000 tested, under 10 active; inconclusive = falling polarisation curve, or a change in total fluorescence; inactive = total fluorescence flat and polarisation flat or rising; no compound was filed as active; the % refers to the polarisation; negative = inhibition;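 further: % of control where 0% means no effect; inhibitors lower the polarisation; unlabelled MLL peptide was the positive control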
PINK1 expr mod = A Quantitative High throughput Screen to Identify Chemical Modulators of PINK1 Expression; PINK1 immunofluorescence, high-content cytometry, 24 h; Potency, µM (top dose mostly 76.6 µM), without a hit: at the highest dose activation (PINK1 increase), actives largely listed as activators; 0.2% of 410,000 active; AID 624263, 2012; active = well fitted activation curve with a large enough effect; inconclusive = small, poorly fitted or top-dose-only effect; inactive = flat fitted curve, though single readings scatter; cell line not stated here;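 further: potency means the concentration at half of the fitted maximal effect; % of control where 0% means no effect; nearly all actives have a fitted effect of over 65% in size; a mitochondrial uncoupler was the plate control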
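Decision-based qHTS: stable cells, 24 h exposure to five compound concentrations, CCCP as control. Fixed cells stained for PINK1 plus nuclear, mitochondrial and cell markers, cytometer read.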
gsp agonist = qHTS for Agonist of gsp, the Etiologic Mutation Responsible for Fibrous Dysplasia/McCune-Albright Syndrome: qHTS. gsp mutant cells, cAMP HTRF, 30 min; control for the full effect not named in the record. Potency, µM (highest dose often 76.9 µM), inactives show at the highest dose activation (cAMP increase), most hits filed as activators. 0.13% of 340,000 active; active = well fitted activation curve with a large enough effect; inconclusive = small, poorly fitted or top-dose-only effect, or another doubt; inactive = no such curve, though single readings can be large or run the other way; cell line not stated here;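 further: phosphodiesterase inhibitor Ro 20-1724 added with compounds to block cAMP breakdown; potency means the concentration at half of the fitted maximal effect; nearly all actives have a fitted effect of over 60% in size; about a fifth of the inactives were tested at one dose only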
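Cells in DMEM/10% FBS with G418 were pretreated with compounds in DMSO plus […] (300 uM stock) for 30 min at 37C. cAMP was measured by HTRF (cAMP-d2 plus anti-cAMP antibody-K) after 30 min at room temperature.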
gsp antagonist = qHTS for Antagonists of gsp, the Etiologic Mutation Responsible for Fibrous Dysplasia/McCune-Albright Syndrome: qHTS | AID 624288, 2012 | Potency, µM (top dose mostly 76.9 µM), inactives show at the top dose activity change, negative = inhibition, usual class: inhibitors | 0.4% of 340,000 active | gsp-mutant cells, cAMP HTRF, 30 min; control for the full effect not named in the record; active = falling curve of any shape with a large fitted effect; inconclusive = falling curve, mostly with a smaller effect; inactive = flat or rising curve; cell line not stated here;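 further: intracellular cAMP measured with PDE inhibitor Ro 20-1724 present during compound exposure; potency means the concentration at half of the fitted maximal effect; on the % scale 0 is the no-effect control and ±100 the full control effect; nearly all actives have a fitted effect of over 65% in size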
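HTRF cAMP read-out (cAMP-d2 plus anti-cAMP antibody-K in lysis buffer, 30 min RT). Before lysis, cells are exposed to compounds with […] for 30 min at 37C in DPBS containing Ca/Mg, BSA and Tween 20.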
ClpP mod = qHTS Assay for Activators of ClpP | ATP-dependent Clp protease proteolytic subunit (Bacillus subtilis (strain 168)), P80244 | purified B. subtilis ClpP, FRET peptide cleavage, 20 min | Potency, µM (highest dose often 57.5 µM), inactives show at the top dose activity change, negative = active | 1.9% of 340,000 active; active = well fitted falling curve with a large enough effect; inconclusive = small, poorly fitted or top-dose-only effect; inactive = no such curve, though single readings can be large or run the other way; further: potency means the concentration at half of the fitted maximal effect; the source files actives as falling curves though it sought activators and does not explain the sign; nearly all actives have a fitted effect of over 65% in size; many hits overshoot -100%
Target sequence (P80244 whole entry, looked up): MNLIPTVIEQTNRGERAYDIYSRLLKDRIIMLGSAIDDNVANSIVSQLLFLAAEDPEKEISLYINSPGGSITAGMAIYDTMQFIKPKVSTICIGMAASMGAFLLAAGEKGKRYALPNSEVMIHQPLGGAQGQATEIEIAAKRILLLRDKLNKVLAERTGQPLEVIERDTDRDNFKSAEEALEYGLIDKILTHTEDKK
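FRET quenching reversal measured ClpP activation: 10 microg/mL B. subtilis ClpP at pH 8 with the FRET-FV decapeptide, read at 430 nm after 320 nm excitation. The 20-min minus 0-min signal was scaled between DMSO/no-enzyme wells and ADEP (5.8 microM final).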
D2 agonist = Beta-Arrestin HTS for Positive Allosteric Modulators of the Human D2 Dopamine Receptor: Agonists | DiscoveRx PathHunter D2 beta-arrestin, luminescence, 90 min; 100% = 57 uM dopamine signal | activation, % (no concentration beside the values) | 0.084% of 360,000 active; in the data active = activation above about 40%; inconclusive = about 15% to 40%; inactive = below about 15%; further: compound concentration not given in the record; the text of the record calls up to 30% inactive
Target sequence (P14416 whole entry, looked up): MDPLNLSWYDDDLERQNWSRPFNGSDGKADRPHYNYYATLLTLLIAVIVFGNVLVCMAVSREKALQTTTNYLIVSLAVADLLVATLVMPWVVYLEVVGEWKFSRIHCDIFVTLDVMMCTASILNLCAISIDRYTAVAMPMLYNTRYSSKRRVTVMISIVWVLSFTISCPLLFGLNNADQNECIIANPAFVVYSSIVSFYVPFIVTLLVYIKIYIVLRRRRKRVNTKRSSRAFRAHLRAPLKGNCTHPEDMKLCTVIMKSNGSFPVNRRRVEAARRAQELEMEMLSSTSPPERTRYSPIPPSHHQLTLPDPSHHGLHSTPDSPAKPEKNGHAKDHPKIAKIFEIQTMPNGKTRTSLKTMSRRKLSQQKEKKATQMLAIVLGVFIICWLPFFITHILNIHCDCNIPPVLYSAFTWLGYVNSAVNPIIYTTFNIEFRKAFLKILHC
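DiscoveRx PathHunter D2 beta-arrestin cells (2,100/well) attached overnight, then compound-stimulated 90 min at 37 C in HBSS/10 mM HEPES/0.1% Tween-20 buffer; beta-galactosidase complementation read by luminescence after 1 h at ambient temperature. Dopamine 57 uM final (EC100) as control.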
* marks the source's active call; other numbers are inactive results; ? = inconclusive; . = no result given; [ ] = dose if it differs, or a comment.

SMILES	Sfp inh	Menin MLL FP FL	PINK1 expr mod	gsp agonist	gsp antagonist	ClpP mod	D2 agonist
O=c1[nH]c2c(c(=O)[nH]1)CCC2	-2.3%	-0.5	1.5%	?	4.7%	.	-5.5
CC(=O)Nc1ccc(Nc2nc(C)c([N+](=O)[O-])c(N(C)c3ccccc3)n2)cc1	7.3%	-0.4	-2.4%	-4.3%[15.4 µM]	-16.9%	-2.5%	-5.1
O=C(NNC1CCN(Cc2ccccc2)CC1)c1ccccc1	.	.	0.5%	-6.8%[15.4 µM]	8.1%	0.3%	-1.7
Cc1ccc(S(=O)(=O)NN=Cc2ccccc2Cl)cc1	.	.	2.0%	-27.7%	.	-0.4%	-5.9
Cc1cc(C)nc(CCNC(=O)c2cc(COc3ccc(F)cc3Cl)on2)n1	-3.9%	1.7	1.0%	-19.8%	2.5%	.	-1.0
O=C(CCN1CCc2ccccc2C1)Nc1ccc(F)cc1	-19.4%	-0.9	-1.5%	5.8%	13.5%	-3.6%	-0.9
CSc1ccccc1C(=O)Nc1c(C)cccc1C	-12.6%	2.2	3.1%	15.0%[15.4 µM]	-18.4%	.	-10.8
Oc1ccccc1C1NN=C(c2ccccc2)S1 (stereo unspecified)	1.6%	12.3	6.1%	-9.7%[15.4 µM]	-3.2%	7.08µM*	1.7
CC(C)C[C@H](NC(=O)c1[nH]cnc1C(=O)Nc1ccccc1F)C(=O)OC(C)(C)C	.	.	0.3%	-6.8%	.	-3.2%	-2.9
CC1CCc2cc(F)ccc2N1C(=O)c1cccs1 (stereo unspecified)	-3.9%	1.0	1.6%	?	-2.9%	-1.5%	-3.3
O=C(O)c1ccc(CSCc2ccccc2Cl)o1	21.4%	4.4	-1.0%	0.9%	-6.8%	0.3%	-4.4
Clc1ccc(Cl)c(-c2nn3c(Cn4cnc5ccccc54)nnc3s2)c1	.	.	1.6%[38.3 µM]	?	-3.3%	-0.3%	0.6
COc1ccc(Nc2nc(C(=O)N3CCc4cc(OC)c(OC)cc4C3)cs2)cc1	-10.0%	-0.8	-2.1%	?	-17.5%	-6.9%	10.1
C=CCN1C(=O)C2C3CC(=O)C(c4ccccc43)C2C1=O (stereo unspecified)	22.0%	-0.1	0.6%	-0.5%[15.4 µM]	5.1%	.	-3.5
COc1cccc(-n2c(SCC(N)=O)nnc2-c2ccncc2)c1	-6.8%	1.9	-3.4%[38.3 µM]	5.1%	-2.5%	0.8%	-1.1
COc1cccc(C(=O)NC(c2ccccc2)C2CCCC2)c1 (stereo unspecified)	13.7%	-0.6	0.5%	-11.0%[15.4 µM]	-4.9%	.	-4.6
CCSc1nnc(CSc2ncccn2)n1C	10.3%	-2.8	2.2%	0.6%[15.4 µM]	17.8%	.	3.6
Cc1cc(C)c(S(=O)(=O)N2CCCC2=O)c(C)c1N(C)S(C)(=O)=O	17.5%	-3.6	3.6%	-17.0%	13.6%	1.4%	-2.8
Nc1nonc1-n1nncc1-c1ccccc1	19.8%	1.7	3.2%	21.1%	14.9%	0.9%	-11.0
CCCCN(C)S(=O)(=O)c1ccc(C(=O)Nc2nnc(C3=COCCO3)o2)cc1	13.9%	1.9	2.0%	-2.7%[15.4 µM]	-9.5%	.	-4.1
CC(C)c1ccc(N(C(=O)c2csnn2)C(C(=O)NC2CCCC2)c2cccnc2)cc1 (stereo unspecified)	6.3%	1.0	0.7%	-2.0%	-4.7%	.	-1.5
Cc1nc2ccc(C(=O)Nc3cccc(OCC(=O)N(C)C)c3)cn2c1N(C)CC1CCCCC1	.	.	0.0%	.	.	2.4%	5.3
CCN1C(=O)C(C)C=C(C)C=C1C (stereo unspecified)	.	.	0.2%	-55.5%[inhibitor]	.	1.3%	0.7
CCc1cc2c(NCCN3CCCCC3)ncnc2s1	-1.6%	0.2	-2.4%	-26.4%	7.8%	-13.5%	-1.6
COCC(=O)Nc1c(C(=O)Nc2ccccc2OC)oc2ccccc12	-2.6%	1.3	11.0%[38.3 µM]	6.6%	2.0%	355.4%	-4.0
Carrying on:
SMILES	Sfp inh	Menin MLL FP FL	PINK1 expr mod	gsp agonist	gsp antagonist	ClpP mod	D2 agonist
COc1ccc(CNc2nc(NCc3ccc(OC)cc3)n(S(C)(=O)=O)n2)cc1	-6.3%	3.9	0.4%	4.6%	6.0%[15.4 µM]	2.3%	-2.0
Cc1[nH]n(C)c(=O)c1N=Nc1ccc(S(C)(=O)=O)cc1	?	1.6	-0.2%	0.7%[15.4 µM]	5.1%	-8.0%	-8.6
CN(CCCCN1CCOCC1)Cc1nc(-c2ccc3c(c2)OCO3)no1	7.3%	-0.7	-0.8%	?	0.5%	.	-1.3
O=C(Cn1cnc2c(nnn2Cc2ccccc2F)c1=O)N1CCN(c2ccccc2)CC1	4.6%	-1.2	-0.8%[38.3 µM]	-15.4%	3.8%	-2.8%	-2.0
COc1ccc(C(C(=O)NC(C)(C)C)N(C(=O)CNC(=O)c2cccs2)c2cccnc2)cc1OC (stereo unspecified)	7.9%	-2.8	1.8%	6.6%[15.4 µM]	0.0%	.	-2.4
CC1CCCCC1NC(=O)COC(=O)c1ccccn1 (stereo unspecified)	10.0%	-1.7	-0.7%	-9.3%	-0.6%	1.2%	-2.1
COc1ccccc1CNC(=O)c1cccc(S(=O)(=O)N(C)c2ccccc2)c1	.	.	-1.1%	19.0%	?	-3.3%	4.6
Cc1ccc(OCCNC(=O)C2CC(=O)N(c3ccc(C)cc3)C2)cc1 (stereo unspecified)	12.0%	-1.3	1.6%	-38.2%	4.7%	?	-4.7
CCCCCC(=O)Nc1ccc2oc(-c3ccncc3)nc2c1	-0.8%	-1.1	-1.1%	22.6%	-18.7%	-21.6%	-3.2
CC(=O)NCCc1nc2ccccc2[nH]1	12.1%	-1.1	4.2%	-13.0%	-0.3%	-1.1%	-3.2
COC(=O)Cc1c(O)ccn(Cc2ccc(Cl)c(Cl)c2)c1=O	13.3%	-2.7	1.0%	-50.6%[inhibitor]	1.9%	-0.6%	-3.0
CCCc1nc2n[nH]c(N)c2c2c1CCC2	-1.0%	-0.7	-1.3%	-39.7%[inhibitor]	-10.0%	1.2%	2.2
CCC(C)Sc1ccc(-c2nc3ccccn3c2NCc2ccccc2)cc1OC (stereo unspecified)	.	.	?	23.0%	-15.4%	3.4%	8.9
Cc1c(Cl)cccc1S(=O)(=O)N1CCC(C(=O)NNC(=O)C2CC2)CC1	8.7%	-2.4	-0.7%	9.5%[15.4 µM]	4.5%	.	-0.8
CC1(C)C(=O)Nc2ccccc2N1C(=O)CSc1ncccn1	11.8%	0.7	1.2%	5.0%	6.8%	0.6%	-1.1
CCCN1C(=O)c2ccccc2NC1c1ccc(Br)cc1 (stereo unspecified)	-5.8%	-8.8	0.7%	?	-11.1%	.	3.5
Cc1ccc(C(=O)NC(C)C(c2cccs2)N2CCCC2)s1 (stereo unspecified)	19.2%	-7.1	-0.3%	18.5%[15.4 µM]	.	.	6.6
O=C1CCCC2=C1C(c1cccs1)n1nc(SCc3ccccc3F)nc1N2 (stereo unspecified)	-7.2%	5.5	12.9%	?	2.6%	?	-0.6
CCS(=O)(=O)N1CCC(C(=O)NCCc2ccc(OC)c(OC)c2)CC1	19.0%	?	10µM*	-76.6%[inhibitor]	-1.0%	-0.4%	-1.0
CCCn1nc(C(=O)NNC(=O)c2cccc(S(=O)(=O)NC(C)C)c2)c2ccccc2c1=O	25.6%	.	-0.7%	-3.7%[15.4 µM]	-1.0%	-2.2%	-5.8
OC(CCN1CCOCC1)(c1ccc(Cl)cc1)C1CCCCC1 (stereo unspecified)	12.8%	-2.2	9.7%	-5.9%	6.0%	1.2%	-1.9
CC(Oc1ccc(C#N)cc1)C(=O)Nc1ccc(-n2cnnn2)cc1 (stereo unspecified)	.	.	-0.6%	5.1%[15.4 µM]	9.9%	-0.2%	-2.5
C=CCSc1nc2c(c(=O)n(C)c(=O)n2C)n1CC	15.6%	3.2	0.0%[38.3 µM]	?	12.9%	2.4%	-2.3
N#Cc1ccc(N2Cc3ccccc3C2=NC(=O)c2cccnc2Cl)cc1	-6.7%	4.0	-0.3%	2.4%	-6.6%	-16.0%	-3.4
O=C(COC(=O)c1cc(=O)[nH]c2ccccc12)Nc1ccc(Cl)c(S(=O)(=O)N2CCOCC2)c1	.	.	2.1%	4.9%	-28.5%	?	-3.8
Carrying on.
SMILES	Sfp inh	Menin MLL FP FL	PINK1 expr mod	gsp agonist	gsp antagonist	ClpP mod	D2 agonist
C=CCc1cccc2cc(C(=O)Nc3ccc(NC(C)=O)cc3)c(=O)oc12	13.2%	-3.4	6.6%	2.2%[15.4 µM]	0.7%	.	-2.8
Fc1ccc(Br)cc1SCCc1ccncc1	-27.0%	0.2	2.4%	-3.4%[15.4 µM]	-4.2%	0.5%	-2.1
COC(C[C@@H](O)[C@@H](C)[C@H](O)COCc1ccccc1)OC	4.9%	4.2	2.3%	.	-9.2%	-1.9%	-2.9
COC(CNC(=O)C(=O)Nc1ccc2c(c1)N(S(=O)(=O)c1cccs1)CCC2)OC	.	.	7.6%	13.8%	-11.7%	-0.8%	1.6
O=C(NCc1cccnc1)c1ccc(COc2ccccc2Cl)cc1	3.3%	0.8	2.4%	?	-1.7%	-2.7%	1.1
CC/C(C)=C1/NC(=O)NC1=O	.	.	0.7%	-5.5%	2.9%	.	-4.4
Cc1nc2ccc(NC(=O)c3ccco3)cc2s1	10.4%	-4.0	-4.1%	6.0%	12.1%	1.2%	-1.6
